# Sa helicase inh – inhibitors of S. aureus replicative helicase, primary screen, biochemical, fluorescence unwinding readout | replicative DNA helicase (DnaC/DnaB), Staphylococcus aureus | purified S. aureus helicase, fluorescence unwinding assay; about half of the hits fall short of the stated cut | inhibition, %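 (tested at about 80 µM)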 | 0.05% of 120,000 active | AID 485395, 2010;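 active = both duplicates at 50% or more, or one of them with a favoured structure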;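 note: 0% = mean of negative control wells and 100% = mean of positive control wells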
# MgrA DNA FP – S. aureus MgrA activity modulators, primary screen, biochemical, S. aureus Newman, fluorescence polarization; MgrA-DNA binding; inhibition, %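 (about 10 µg/mL by stock and volumes)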; 0.13% of 84,000 active; AID 602314, 2012;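 active = above 50% in either of two replicates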;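 note: 0% = protein plus DNA without compound and 100% = DNA alone without protein; higher means less MgrA bound to DNA so lower polarization; one replicate is shown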
# * marks the source's active call; other numbers are inactive results; . = not tested or not shown. Some of the compounds tested; rates above refer to the full screens.
SMILES,Sa helicase inh,MgrA DNA FP
Cc1ccc(S(=O)(=O)N2CCCC2C(=O)OCc2nc3ccsc3c(=O)[nH]2)cc1 (stereo unspecified),13,.
O=C(CCOc1ccccc1)Nc1ccccc1N1CCCC1,-6,.
O=C(CC12CC3CC(CC(Br)(C3)C1)C2)OCC(=O)N1CCCC1,-13,-1.1
CC(N)=Nc1cc(-c2ccccc2)[nH]n1,.,0.0
COc1ccc(C(=O)N2CCC(C(=O)c3c(C)cc(C)cc3C)CC2)cc1,.,1.0
CCn1c(=O)cc(SCC(=O)NCC2(c3ccccc3)CCCC2)c2ccccc21,13,-1.3
Cc1ccccc1NS(=O)(=O)N1CCCCC1,-21,.
NC(N)=NC(N)=Nc1ccc(F)cc1,.,-3.0
Cc1cc(=O)oc2c3c(ccc12)O/C(=C\c1ccc(Cl)cc1)C3=O,10,-2.8
CC(C)(C)c1ccc(C(=O)NCCC(=O)N2CCN(c3ncccn3)CC2)cc1,26,.
CC(C)(C)C1=CC(=Nc2ccccc2N)C=C(C(C)(C)C)C1O (stereo unspecified),7,2.1
C=CCC(O)(CC=C)C(C)N (stereo unspecified),-6,0.9
CCC(C)(C#CCN1CCN(C)CC1)OC1CCCCO1 (stereo unspecified),11,3.6
COCCCN1C(=O)c2ccc(C(=O)OCC(=O)Nc3ccc(N(C)C)cc3)cc2C1=O,1,.
COc1ccc(CSc2nc3ccccc3s2)cc1OC,5,0.9
CCCCn1c2nc3ccccc3nc2c2cccc(C)c21,-13,.
Clc1cccc(Nc2nnns2)c1Cl,.,12
COC(=O)COc1ccc(NC(=O)c2ccco2)cc1,-12,1.7
C/C(=N\NC1=NCCN1)c1ccc(Br)cc1,.,1.5
CCCNC(=O)c1cnc(N2CCCC2)nc1,9,13
O=C(O)/C=C/c1ccc(Br)s1,8,.
O=C(NCCCn1ccnc1)c1cccnc1,5,.
CCOc1cc(N2CCOCC2)c(OCC)cc1NC(=O)Cn1nnc(-c2ccccc2C)n1,-16,.
O=C(c1ccco1)N1CCN(c2ccc(C(F)(F)F)cn2)CC1,.,3.9
O=C(O)C1CC=CCC1C(=O)Nc1ccc(Cc2ccncc2)cc1 (stereo unspecified),6,4.8
COc1ccccc1N1CCN(C(=O)c2cc(C(C)(C)C)oc2C)CC1,.,-1.7
COc1cc(S(=O)(=O)N2CCCC2)c(OC)cc1C,4,1.5
CC1(C)CC(=O)C=C(NCCCN2CCOCC2)C1,15,-2.4
COc1ccc(CCN=C2SCCN2C(=O)c2ccc(NC(N)=O)cc2)cc1,9,.
Cc1cc2c(cc1S(=O)(=O)NC(C)(C)C)OCC(=O)N2,-13,0.2

# New compounds follow.
SMILES,Sa helicase inh,MgrA DNA FP
CC(=O)Nc1cc(-n2c(C)nc3ccccc3c2=O)ccc1Cl,0,.
CCC(C)NC(=O)C1(O)c2ccccc2NC(=O)N1c1ccccc1 (stereo unspecified),10,.
O=C(NCCO)c1cccc(C(=O)NCCO)c1,2,2.0
CCOc1ccc(NC(=S)N2CCC(c3ccccc3OC)CC2)cc1,.,-2.4
O=C(c1noc2c1CCCCC2)N1CCCCC1,25,.
CCn1c2ccccc2c2cc(NC(=O)/C=C/C(=O)O)ccc21,.,-2.0
O=C1c2ccccc2CCC1Sc1nnc(-c2ccncc2)o1 (stereo unspecified),-5,.
Oc1c(CN2CCOCC2)ccc2cccnc12,5,.
CC(C)(C)NS(=O)(=O)c1ccc(Br)cc1,2,1.7
Cc1cc(N2CCN(c3ccccn3)CC2)n2ncnc2n1,12,8.6
CC(C)NC(=O)C1(c2ccccc2)CCOCC1,6,-2.2
O=C(Nc1ccc2c(c1)OCO2)C1=NN(C2CCS(=O)(=O)C2)C(=O)CC1 (stereo unspecified),-11,.
Cn1ncc(Br)c1NC(=O)CSc1ccc(Cl)cc1,.,3.2
O=C(CC1Nc2cccc3cccc(c23)NC1=O)Nc1ccccc1 (stereo unspecified),9,2.2
C=CCOc1cc(C)nc(N2CCOCC2)n1,5,0.6
COc1ccc(NC(=O)c2cnn3c2NC(c2cccc(OC)c2)CC3C(F)(F)F)cc1 (stereo unspecified),-23,.
c1ccc(NNC2=NCCCCC2)nc1,32,.
O=C(Cn1nnc2ccccc21)NCCSCc1ccco1,-8,.
CCCOc1ccc(-c2cc(C(F)(F)F)c(C#N)c(SCC(=O)O)n2)cc1,-9,.
COC(=O)c1c(C)oc2ccc(OCC(=O)OC(C)(C)C)cc12,28,.
O=C(NCC1CCCO1)c1cnc(N2CCCC2)nc1 (stereo unspecified),-21,.
CCn1c2ccccc2c2cc(CNCCc3ccc(Cl)cc3)ccc21,6,-1.3
FC(F)(F)c1nnc2c3ccccc3c(Cl)nn12,7,-3.5
Cc1ccc(C)n1-c1ccc(C(=O)NNC(=O)c2cc(C(F)(F)F)cc(C(F)(F)F)c2)cc1,.,-1.5
CCOC(=O)c1ccccc1OC(=O)c1c(F)c(F)c(F)c(F)c1F,19,-0.1
Cc1cc(N2CCN(C)CC2)nc(SC(C(=O)O)c2ccccc2)n1 (stereo unspecified),27,.
CCCCn1c(COc2ccc(Cl)c(C)c2)nc2cc(S(N)(=O)=O)ccc21,-44,.
CC(=O)NCCc1nc2ccccc2n1CCOc1ccccc1,5,-1.8
Cc1c(C(=O)NCCN2CCN(C)CC2)sc2nc3n(c(=O)c12)CCCCC3,9,4.7
CCCCOC(=O)Sc1nc2ccccc2o1,.,9.0

# New compounds follow.
SMILES,Sa helicase inh,MgrA DNA FP
S=c1nc(C2CCCCC2)[nH][nH]1,12,1.1
Cc1nn(-c2ccc(F)cc2)c2sc(C(=O)N(C)C3CCN(C)CC3)cc12,5,-0.8
COc1ccc(S(=O)(=O)NC2CCCCCC2)c2ccccc12,-19,.
COc1ccc(CCN2C(=O)/C(=C/C3CC=CCC3)SC2=S)cc1OC (stereo unspecified),9,0.1
CSc1nc2c(C#N)c(SC)nn2c(-c2ccc(Cl)cc2)c1C#N,.,2.8
O=C1NC(=Nc2ccccc2Br)S/C1=C/c1cccs1,-15,.
N#Cc1cnc(N(Cc2ccccc2)Cc2ccccc2)nc1N,.,-2.1
CS(=O)(=O)N1CCCC(C(=O)N2CCc3ccccc3C2)C1 (stereo unspecified),7,.
COc1ccc(-n2nc(C(=O)N3CCCCC3C)c3c4ccccc4n(C)c3c2=O)cc1 (stereo unspecified),15,.
CSc1cccc(-n2c(C)cc(C(N)=O)c2C)c1,-5,.
CCN(CC)c1ccc(-n2cccc2)cc1,-13,.
O=C(NCc1ccco1)C1CC(c2ccccc2O)=NO1 (stereo unspecified),2,-0.7
On1ccccc1=S,11,.
CCOC(=O)C1=NN(c2ccccc2)C2c3cc(OC)c(OC)cc3CCN12 (stereo unspecified),.,-1.7
O=C(Nc1cccc(-c2nc3ncccc3o2)c1)c1ccc2c(c1)OCO2,-5,.
CCCCCC(=O)N1CC(C)OC(C)C1 (stereo unspecified),12,-1.9
O=C(c1cnc2c(c1)c(=O)nc1ccccn12)c1ccccc1O,-14,.
Cc1onc(-c2c(Cl)cccc2Cl)c1C(=O)Nc1ccccc1,.,-0.4
CCCNc1ncnc2c1cnn2-c1ccccc1,1,.
COc1cc(C(=O)N2CCN(Cc3ccccc3C(F)(F)F)CC2)cc(OC)c1OC,39,.
COc1ccc(NC(=O)COC(=O)CC2Sc3ccccc3NC2=O)cc1 (stereo unspecified),7,.
COc1cc(C2Nc3ccc4ncccc4c3C3=C2C(=O)CCC3)ccc1OC(C)=O (stereo unspecified),6,.
CCOc1cc(CO)ccc1OCC(=O)N1CCCCC1,13,-2.0
O=C(Cn1nnc(-c2cccc(Cl)c2)n1)N1N=C(c2cccs2)CC1c1cccs1 (stereo unspecified),-7,.
CCOc1ccc(NC(=O)CCCN2C(=O)/C(=C\c3ccco3)SC2=S)cc1,-13,.
CCOC(=O)C1=C(CN2CCc3ccccc32)NC(=O)NC1c1ccccc1 (stereo unspecified),12,-0.7
CCc1ccccc1NC(=O)CSc1nc2ccccc2n1CC(=O)N(C)C,7,-2.7
Cc1c(-c2ccccc2)[n+](=O)c(-c2ccc(Br)cc2)c(C)n1[O-],6,1.4
CNC(=S)NNS(=O)(=O)c1ccc(C)cc1,4,.
Cc1onc(-c2ccccc2)c1-c1csc(CS(=O)(=O)C(C)(C)C)n1,-8,.

# The results go on.
SMILES,Sa helicase inh,MgrA DNA FP
O=C(Cn1nc(-c2ccccc2)c2ccccc2c1=O)Nc1ccc(O)cc1,11,.
Cc1noc(C)c1C(=O)OC(C)C(=O)c1ccc(C(C)(C)C)cc1 (stereo unspecified),11,.
O=C(CCC(=O)c1ccc(F)cc1)Nc1cccc(Br)c1,-21,-2.2
CC1=C(C#N)C(c2ccc(OCc3ccccc3)cc2)C(C#N)=C(C)N1,-49,.
O=C(O)c1ccc(Oc2ccccc2)o1,.,0.8
COc1cc(C)c(C(C)C)cc1S(=O)(=O)N1CCCC1,-28,.
Cc1cc(NC(=O)CC(C)(C)C)nc2c1c(=O)oc1ccccc12,15,.
O=C(CSc1ncn(-c2ccccc2)n1)NCC1CCCO1 (stereo unspecified),-10,-3.5
COC(=O)C1=C(C)NC2=C(C(=O)c3ccccc32)C1c1ccc(OC)cc1 (stereo unspecified),6,2.2
Cc1nc(NCCc2ccccc2)sc1C(=O)N(C)C,4,.
Cc1ccc(C)c(S(=O)(=O)Nc2ccccc2C(=O)OCC(=O)c2cc(C)n(Cc3ccco3)c2C)c1,5,.
COc1ccccc1N(Cc1ccccc1O)C(=O)COc1ccccc1,-3,.
Cc1cc(Oc2c(C)cccc2C)c2ccccc2n1,.,-0.2
COc1ccc2cc(CN(CC3COCCO3)S(=O)(=O)c3c(C)cc(C)cc3C)c(=O)[nH]c2c1 (stereo unspecified),4,-3.2
O=C(O)c1ccccc1OCC(O)Cn1cnc2ccccc21 (stereo unspecified),10,.
CNc1nc(NC(C)(C)C)nc(OCC(F)(F)F)n1,-12,-0.6
COC(=O)c1nccnc1N,.,-1.9
CS(=O)(=O)NN=C1CCCCC1,2,0.9
Cc1nn(-c2ccccc2)c(C)c1C(=O)NCC(c1cccs1)N(C)C (stereo unspecified),-6,.
Cc1cccc(OCC(O)CN2CCCCCC2)c1C (stereo unspecified),20,.
CCc1ccc(C2=Nn3c(C)nnc3SC2)cc1,-8,-7.8
CCOc1ccc(-c2cc(C(=O)NCC3COc4ccccc4O3)c3ccccc3n2)cc1 (stereo unspecified),8,-0.7
OC1(C#Cc2ccccc2)CCN(Cc2ccccc2)CC1,13,.
COc1ccc(C2SCCN2S(C)(=O)=O)cc1OC (stereo unspecified),-3,.
Cc1cc(NC(=O)COC(=O)C2=NNC(=O)CC2)no1,-3,.
CN(C)c1ccc(/C=C2/SC(=Nc3ccccc3Cl)NC2=O)cc1,.,2.0
CCC1(C)CC(/C=N/O)CCO1 (stereo unspecified),9,-3.1
N#Cc1cccc(OCc2ccccc2F)c1,18,4.8
CCOC(=O)C1CCN(C(=O)Cn2ncc3ccccc32)CC1,1,.
Clc1ccc(OCc2nc(-c3ccccc3)no2)cc1,-18,-0.5

# New compounds follow.
SMILES,Sa helicase inh,MgrA DNA FP
O=C1CC(NNc2ccccc2)C(=O)N1c1cccc(Cl)c1 (stereo unspecified),7,4.2
CSC1=NC(C)(C)CCC(C)(C)N1,.,12
COc1ccc(C2c3c(oc4ccccc4c3=O)C(=O)N2CCCOC(C)C)cc1 (stereo unspecified),-1,.
Cc1cc(NC(=O)NC2CCN(Cc3ccccc3)CC2)c(C(F)(F)F)o1,3,.
Cc1ccc2c(c1)c1c(n2CCN(Cc2ccccc2)Cc2ccccc2)C(=O)CCC1,6,1.2
CCCCOc1ccc(S(=O)(=O)NC(Cc2c[nH]c3ccccc23)C(=O)OC)cc1 (stereo unspecified),.,-1.8
N#Cc1ccsc1NC(=O)CN1CCc2ccccc2C1,-27,.
CC(C)n1c(CCCNC(=O)C(C)(C)C)nc2ccccc21,8,.
CCOC(=O)C1CCCN(C(=O)CCC2CCCCC2)C1 (stereo unspecified),6,.
CC1CN(c2ccccc2O)CC(C)O1 (stereo unspecified),.,-0.7

# Screens from PubChem.
